HPGD inh: qHTS Assay for Inhibitors of HPGD (15-Hydroxyprostaglandin Dehydrogenase). 15-hydroxyprostaglandin dehydrogenase [NAD(+)] (Homo sapiens), P15428. purified HPGD, NADH fluorescence kinetic, PGE2 substrate. Potency, µM, for inactives: at the top dose activity change, negative = inhibition, usual class: inhibitors. 150,000 tested, 4.3% active. AID 894, 2007; active = well fitted inhibition curve with a large enough effect (not every such curve was filed as active); inconclusive = small, poorly fitted or top-dose-only effect, or another doubt; inactive = no such curve, though single readings can be large or run the other way;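 further: top concentration of the series not given in the record; plate controls included wells without enzyme; inactives centre near -10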
Target sequence (P15428 whole entry, looked up): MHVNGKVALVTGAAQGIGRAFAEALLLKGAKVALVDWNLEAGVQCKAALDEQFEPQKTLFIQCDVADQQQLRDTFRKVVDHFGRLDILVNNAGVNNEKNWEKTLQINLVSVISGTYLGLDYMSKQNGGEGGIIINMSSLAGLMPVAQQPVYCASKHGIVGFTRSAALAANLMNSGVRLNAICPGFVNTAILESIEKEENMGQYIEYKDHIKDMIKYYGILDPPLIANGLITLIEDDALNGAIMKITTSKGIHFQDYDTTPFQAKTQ
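NADH formation kinetics: reaction with 30 uM PGE2 and 1 mM NAD+ (final), 20 nM enzyme, Tris-HCl pH 8 with Tween 20, after 15 min compound preincubation at room temperature. Fluorescence change, last versus first of five reads.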
The depositor's hits bear a star; ? = inconclusive; & = joins results of further samples; [ ] = dose if it differs, or a comment. On the % scale 0 is the no-effect control and ±100 the full control effect; potency means the concentration at half of the fitted maximal effect.

item | structure | HPGD inh
1 | Cc1cc2c(ccc3c2no[n+]3[O-])nn1 | -2%
2 | Cc1cccc(CCNS(=O)(=O)c2ccc3c(c2)oc(=O)n3C)c1 | 4%
3 | CN(C)CCCN(C(=O)c1cccs1)c1nc(-c2ccccc2)cs1 | -3%
4 | Cc1nn(-c2ccccc2)c(C)c1/C=N\NS(=O)(=O)c1ccc(Cl)cc1 | 3%
5 | O=[n+]1c2c(n([O-])c3c1CCCC3)CCCCC2 | -21%
6 | O=C(NCc1nc2ccccc2[nH]1)c1ccco1 | -4%
7 | CCC1C(=O)C[C@H]2CCN3C(=O)CCCC1C23 (some centres undefined) | -6%
8 | CC1Cc2ccccc2N1C(=O)COC(=O)c1c2c(nc3ccccc13)CCCCC2 (centres undefined) | 1%
9 | O=C(OCC#CCSc1nnc(-c2ccccc2)o1)c1ccco1 | -27%
10 | Cc1ccc(N2C(=O)C3C(c4ccccc4)(C2=O)C3(c2ccccc2)c2ccccc2)cc1 (centres undefined) | -15%
11 | C=C(C)CN1CCN(S(=O)(=O)c2ccc(C)c(N(C)S(=O)(=O)c3ccc(C)cc3)c2C)CC1 | -25%
12 | CCCC(=O)NC(NC(=S)Nc1c(C)n(C)n(-c2ccccc2)c1=O)C(Cl)(Cl)Cl (centres undefined) | -5%
13 | Cc1cccc(-n2c(O)c(/C=N/NC(=O)c3ccccc3Cl)c3ccccc3c2=O)n1 | -16%
14 | CCN1C(c2ccc(F)cc2)=CS/C1=C(\C#N)c1nnc2n1-c1ccccc1SC2 | ?
15 | O=C(Cc1cccs1)Nc1nncs1 | 0%
16 | Cc1ccnc(SCC(=O)c2ccc(Br)cc2)c1C#N | 28µM*
17 | CCCn1c(SCC(=O)NCCc2ccc(OC)c(OC)c2)nc2c1c(=O)n(C)c(=O)n2C | -14%
18 | COc1cccc([C@@H]2Oc3ccc(Br)cc3C(=O)[C@H]2OC(=O)Nc2ccc(C)c(Br)c2)c1 | -8%
19 | Cn1cc(SCC(N)=O)c2ccccc21 | -4%
20 | O=C(c1nn2cccnc2c1Cl)N1CCN(c2ccccc2)CC1 | -17%
21 | Cn1c(-c2sccc2OCc2ccccc2)n[nH]c1=S | ?
22 | Cn1c(=O)n(C)c2cc(NC(=O)CCl)ccc21 | -13%
23 | COC(=O)C/C=C/[C@@H](C)[C@@H](/C=N/O[C@H](C)c1cn([C@@H]2COC[C@H]2O)nn1)NS(=O)(=O)c1ccc(C)cc1 | -5%
24 | O=C(Nc1ccc(N2CCOCC2)cc1)C1CCCCC1 | -4%
25 | O=C(C1CCN(S(=O)(=O)N2CCC3(CC2)OCCO3)CC1)N1CCC(Cc2ccccc2)CC1 | 0%

Retrieved one by one from the list above:
item | structure | HPGD inh
6 | O=C(NCc1nc2ccccc2[nH]1)c1ccco1 | -4%
4 | Cc1nn(-c2ccccc2)c(C)c1/C=N\NS(=O)(=O)c1ccc(Cl)cc1 | 3%
1 | Cc1cc2c(ccc3c2no[n+]3[O-])nn1 | -2%
19 | Cn1cc(SCC(N)=O)c2ccccc21 | -4%
20 | O=C(c1nn2cccnc2c1Cl)N1CCN(c2ccccc2)CC1 | -17%
17 | CCCn1c(SCC(=O)NCCc2ccc(OC)c(OC)c2)nc2c1c(=O)n(C)c(=O)n2C | -14%
18 | COc1cccc([C@@H]2Oc3ccc(Br)cc3C(=O)[C@H]2OC(=O)Nc2ccc(C)c(Br)c2)c1 | -8%

(list continues)
item | structure | HPGD inh
26 | CCOc1cc(/C=C/c2ccc3cccc([N+](=O)[O-])c3n2)ccc1O | -7%
27 | CCC(=O)OC1(C)C(=O)C=C2C=C(c3ccsc3)OC=C2C1=O (centres undefined) | -4%
28 | COc1ccc(NC(=O)c2cccc(N3C(=O)NC4CC3(C)Oc3ccccc34)c2)cc1 (centres undefined) | -4%
29 | Cc1ccc(-n2nnnc2SCC(=O)Nc2nc(-c3ccc(F)cc3)cs2)cc1C | -11%
30 | CCn1c(SC(C)C(=O)O)nc2sc3c(c2c1=O)CCC3 (centres undefined) | -2%
31 | CCc1cc2cc(C)ccc2nc1SCC(=O)Nc1cc(C)on1 | -15%
32 | COc1cccc(C(c2nnnn2Cc2ccccc2)N2CCN(C3CCCC3)CC2)c1OC (centres undefined) | -11%
33 | CCN(CC)S(=O)(=O)c1cccc(-c2cn3cc(C)ccc3n2)c1 | -26%
34 | COc1ccc(NC(=O)NCc2ccncc2)c(OC)c1 | 1%
35 | Cc1cc(Cl)cc(Cl)c1OCCOCCN(C)C | 4%
36 | N/C(=N\OC(=O)Cc1ccccc1)c1ccc([N+](=O)[O-])cc1 | -9%
37 | CC1(OC(=O)c2cnc3ccccc3n2)C(=O)C=C2C=C3CCCN3C=C2C1=O (centres undefined) | -9%
38 | CCOC(=O)CNC(=O)O[C@@H]1C(=O)c2cc(OC)ccc2O[C@H]1c1ccc(OC)c(Br)c1 | -7%
39 | CCC(C)[C@H](NC(=O)OC(C)(C)C)C(=O)N/N=C/C1=Cc2ccccc2OC1 (some centres undefined) | ?
40 | CCCCCCCCOC(=O)c1nc(Cl)c(Cl)c(N)c1Cl | -4%
41 | O=C(NC(Cc1ccccc1)c1ccc2c(c1)OCCCO2)c1ccc(F)cc1 (centres undefined) | -16%
42 | O=C(Cn1c(=O)oc2cc(S(=O)(=O)N3CCCC3)ccc21)N1CCCC1 | -18%
43 | Oc1cccnc1CN1CCCCC1 | -11%
44 | CC(C)(C)OC(=O)NNC1CC(=O)N(c2ccccc2F)C1=O (centres undefined) | -1%
45 | COCCNC(=O)Cn1c(=O)n(C)c2ccccc21 | -5%
46 | CCOC(=O)c1ccc(-c2ccc(/C=N/NC(=O)CN(c3cccc(C)c3)S(C)(=O)=O)o2)cc1 | ?
47 | Nc1ccc(S(N)(=O)=O)cc1 | -2%&-12%&-8%
48 | CC(C)N1CCC(=NNc2ccc(S(=O)(=O)N3CCOCC3)cc2[N+](=O)[O-])CC1 | -8%
49 | CCCn1c(SCC(=O)c2cc(OC)ccc2OC)nnc1C(C)C | -7%
50 | CN(C)S(=O)(=O)c1ccc(Cl)c(C(=O)NCc2ccco2)c1 | -4%
51 | CCOc1ccc(-c2cc(C(=O)O)c3ccccc3n2)cc1 | ?
52 | C1CCN(CC[C@@H]2CCCCN2)CC1 | -8%
53 | CCn1c(=O)n(CC)c2cc(S(=O)(=O)Nc3c(C)cccc3C)ccc21 | -11%
54 | CNC(=S)N/N=C/c1cccc(OCc2ccccc2F)c1 | -13%
55 | Cc1ccc(C2=C(CC(=O)O)C(=O)CC2)cc1 | -21%
56 | Cc1cccc2c(=O)cc(C)n(CC(=O)N3CCOCC3)c12 | -9%
57 | CCOC(=O)c1cccc(NC(=O)Cn2cc3c(n2)CCC(C)C3)c1 (centres undefined) | -10%
58 | C/C(O)=C(\C#N)c1nnc2n1CCCCC2 | -14%
59 | COCC(C)n1c(SCC(=O)N2CCCCC2)nc2ccccc2c1=O (centres undefined) | -13%
60 | O=C(O)Cc1ccc(C(=O)c2ccccc2)s1 | ?
61 | CCC(CO)Nc1nc(CN2CCCCC2)nc2scc(-c3ccccc3)c12 (centres undefined) | -9%
62 | Cc1c(C(N)=O)sc(N)c1C(=O)OC(C)C | -22%
63 | CCOc1ccccc1NC(=O)CSc1nccn1-c1ccccc1 | -16%
64 | Cn1cccc1C(=O)C(=O)Nc1ccccc1 | -26%
65 | COC(=O)c1[nH]c2cc(OC)ccc2c1N | ?
66 | Cc1ccc(-c2nc3ccc(NS(=O)(=O)c4ccccc4)cc3[nH]2)o1 | 40%[activator]
67 | COc1cccc(OC)c1C(=O)Nc1nc2ccc(S(C)(=O)=O)cc2s1 | -14%
68 | O=C1CSC(c2cccc(F)c2)N1c1ccccc1F (centres undefined) | -4%
69 | O=S(=O)(NC1CCCCC1)c1ccc(F)c2ccccc12 | -24%
70 | Cc1cc2c3nonc3ccc2n1-c1ccccc1 | ?
71 | COc1cccc(NC(=S)NN2CCN(C)CC2)c1 | -7%
72 | CCN(CC)/C(=N/O)NC(=O)NS(=O)(=O)c1ccc(C)cc1 | 4%
73 | CCc1c(O)nc(SCC(=O)N2CCOCC2)n(-c2ccccc2)c1=O | -5%
74 | CC(C(=O)Nc1ccc([N+](=O)[O-])cc1)N1CCN(C/C=C/c2ccccc2)CC1 (centres undefined) | -19%
75 | Cc1ccc(-c2nc(N/N=C/c3ccccc3[N+](=O)[O-])c3ccccc3n2)cc1 | -12%

(list continues)
item | structure | HPGD inh
76 | O=C(O)CCCC(=O)Nc1ccc(Br)cc1C(=O)O | -13%
77 | COc1c(/C=N/NC(N)=S)c(C)nn1-c1ccccc1 | -18%
78 | O=C(c1ccccc1F)N(Cc1ccc2c(c1)OCO2)Cc1cc2cc3c(cc2n2nnnc12)OCO3 | ?
79 | CC(=O)c1c(C)n([O-])c2ccc(C)cc2[n+]1=O | -15%
80 | Cc1[nH]n(-c2ccc(F)cc2)c(=O)c1/C=N/c1sc2c(c1C#N)CCCC2 | -17%
81 | O=C(Nc1cccc(F)c1)N1CCC2(CC1)CCN(C(=O)c1ccco1)CC2 | -4%
82 | CC(/C=N/NC(=S)Nc1cccc(S(=O)(=O)N(C)C)c1)c1ccccc1 (centres undefined) | 35µM*
83 | Cc1cccc(NC(=S)N(C)C2(c3ccccc3Cl)CCCCC2=O)c1 (centres undefined) | -1%
84 | COc1cc2c(cc1OC)C(C(=O)N1CCN(c3ccccc3)CC1)C(c1cccs1)N(C)C2=O (centres undefined) | -3%
85 | O=C(O)c1ccccc1C(=O)Nc1ccccc1 | -16%
86 | O=C(Nc1cccc(Cl)c1)NC1CCCCC1 | -8%
87 | CCCCOc1ccc(C2CC(=O)NC2=O)cc1 (centres undefined) | -9%
88 | COc1ccc(/C=C(/CC(=O)Nc2ccccc2)c2nc3ccccc3s2)cc1 | ?
89 | Cc1ccc(CN(C(=O)c2csnn2)C(C(=O)NC2CCCC2)c2ccc(C)o2)cc1 (centres undefined) | -17%
90 | Cc1ccc(S(=O)(=O)N(CC(=O)N2CCCC2)C2CCCCC2)cc1 | 6%
91 | Nc1nc(C23CC4CC(CC(C4)C2)C3)cs1 | -12%
92 | O=C(CSc1nc(-c2ccccc2)c(-c2ccccc2)o1)N1CCOCC1 | ?
93 | CCOC(=O)Cc1csc(NC(=O)c2ccncc2)n1 | -17%
94 | Clc1ccc(N2COC3c4cccc5cccc(c45)C32)cc1 (centres undefined) | -13%
95 | COc1ccc(NC(=O)C2CCCN(S(=O)(=O)c3ccc4c(c3)oc(=O)n4C)C2)c(OC)c1 (centres undefined) | -17%
96 | CCCCN(CC)C(=O)/C=C/c1cccc([N+](=O)[O-])c1 | -18%
97 | Cn1c(-c2ccc3c(c2)OCO3)cnc1NC(=O)CCC(=O)NCCc1ccccc1 | -21%
98 | COc1cc2c(C(=O)Nc3ccc4c(c3)OCO4)cn(CC(C)C)c(=O)c2cc1OC | -3%
99 | O=C(NCCCn1ccnc1)c1ccco1 | 3%
100 | Cc1ccc2nc(-c3ccc(O)cc3)c(Nc3ccc4c(c3)OCCO4)n2c1 | ?
101 | COC(=O)C(Cc1cnc(Cl)s1)(C(=O)OC)c1ccc([N+](=O)[O-])cc1 | -15%
102 | Oc1ccc(CNC2CCCCC2)cc1 | 1%
103 | Cc1ccc(C(=O)CC2(O)C(=O)N(C)c3ccc(Br)cc32)c(C)c1 (centres undefined) | -8%
104 | Cn1cc(C(F)(F)F)nc1-c1ccc(OC[C@@H](O)CNCCOc2ccc(O)c(C(N)=O)c2)cc1 | -16%
105 | COc1ccc(Cc2nnc(SCC(=O)NC(C)c3ccccc3)o2)cc1 (centres undefined) | -21%
106 | COc1ccc(/C=C/C(=O)c2cccs2)c(OC)c1 | ?
107 | Cc1nc(C(F)(F)F)nc(Nc2ccc(N=Nc3ccccc3)cc2)c1C#N | 0%
108 | CCCCC(CCC(=O)Nc1ccccc1C(=O)OCC)C(=O)O (centres undefined) | -13%
109 | O=c1[nH]c2ccccc2c(=O)n1CCCO | ?
110 | O=C(CSc1nnnn1-c1ccccc1)c1cc2ccccc2oc1=O | 0%
111 | Cc1ccc([N+](=O)[O-])cc1-c1ccc2cccc(C)c2n1 | -12%
112 | O=C(NCCc1ccccc1)Nc1cccc(Cl)c1 | -9%
113 | O=C(c1ccco1)N1CCN(C(=O)c2[nH]ncc2[N+](=O)[O-])CC1 | -3%
114 | O=C(CCCOc1ccccc1)NCC1CCCO1 (centres undefined) | 13µM*
115 | CC1(C)CC(=O)C2=C(C1)OC(N)=C(C#N)C21CCC2(CC1)OCCO2 | -1%
116 | CCC(C)[C@H](NC(=O)NCc1ccccc1Cl)C(=O)OC (some centres undefined) | -12%
117 | Nc1ccc(-c2ccc(Nc3cc(S(=O)(=O)O)c(N)c4c3C(=O)c3ccccc3C4=O)cc2)c(S(=O)(=O)O)c1 | -28%
118 | COC(=O)Nc1ccc(S(=O)(=O)N2CCCC(C(=O)Nc3cccc4c3OCCO4)C2)cc1 (centres undefined) | -4%
119 | CC(C)(C)OC(=O)NCCCCC1=CC2=CC(=O)C(C)(OC(=O)C3CCCC3)C(=O)C2=CO1 (centres undefined) | -8%
120 | Nc1c(C(=O)O)sc2nc(-c3ccccc3)c3c(c12)CCCC3 | -21%
121 | Cc1nc(=O)c(-c2ccccc2)c(C)n1CCCO | -10%
122 | Nc1nc(N2CCCCC2)nc(N2CCCCC2)n1 | -11%
123 | N=c1c2c3c(sc2nc2n1CCC2)CCCC3 | -6%
124 | O=C(Nc1nnc(-c2ccccc2)o1)c1cccc(N2C(=O)CCC2=O)c1 | -12%
125 | CCOCC(=O)O | -3%
126 | CCOC(=O)N1CCN(c2c(NCCCN(CC)c3cccc(C)c3)c(=O)c2=O)CC1 | -28%
127 | COC(=O)c1cc(NC(=O)CN(c2ccc(OC)cc2)S(=O)(=O)c2ccc(F)cc2)ccc1Cl | -6%

Screens deposited in PubChem by National Center for Advancing Translational Sciences (NCATS).

This is a subset; the hit share may differ from the screen's.
